MITF inh: MITF inhibition | TRPM1 promoter luciferase, luminescence, 24 h | inhibition, % (no concentration beside the values) | 37,000 compounds, 0.28% hits;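 active means most replicates at 85% or more, or half of them and the mean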;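 further: human melanocyte line stably carrying TRPM1 promoter luciferase reporter; 0% = vehicle wells and 100% = a positive control; the first replicate is given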
Hedgehog inh: blocks Sonic Hedgehog signaling | Shh-LIGHT2 Gli-luciferase reporter, 30 h | inhibition, % (no concentration beside the values) | 22,000 compounds, 2.1% hits;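 active means replicate mean of 65% or more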;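 further: pathway switched on by Shh-conditioned medium diluted 1 in 25 in low serum; 100 nL library stock added to about 40 µL; 0% = median of neutral wells and 100% = positive control level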
YB-1 expression: YB-1 expression inhibition. U2OS, qRT-PCR YB-1 vs CDIP delta delta Cp, 16 h; stronger effect = higher value; zero = DMSO, each unit about twofold. delta delta Cp (YB-1 minus CDIP) (concentration not given with the values). 30,000 compounds, 0.37% hits;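 active means delta delta Cp rounded down to an integer at or above 3, about 3 SD of DMSO wells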;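 further: higher means less YB-1 transcript or more CDIP transcript relative to DMSO; stock transfer was 100 nL into about 100 µL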
PD-1 reversal: reversal of PD-1 mediated T-cell inhibition; primary human CD4 T cells, PD-L1 beads, CellTiter-Glo 96 h; activation, % (test concentration not listed); 29,000 tested, under 10 active; AID 2316;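 active means replicate mean of 50% or more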;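 further: 0% = median vehicle wells and 100% = positive control; 100 nL library stock added to about 50 µL; numbers are from one replicate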
An asterisk follows results filed as active; . = not tested or not shown.

SMILES	MITF inh	Hedgehog inh	YB-1 expression	PD-1 reversal
Cc1ccc(S(=O)(=O)Nc2ccc3c(c2)CC(=O)N([C@H](C)CO)C[C@@H](C)[C@@H](CN(C)C(=O)Nc2c(C)noc2C)O3)cc1	-10	-22	0.48	1.6
O=C(NCc1ccco1)C1CCCN(S(=O)(=O)c2ccc(Cl)cc2)C1 (stereo unspecified)	-5	.	.	0.2
COc1ccc(S(=O)(=O)Nc2cccc3c2O[C@H](CN(C)Cc2ccc4c(c2)OCO4)[C@H](C)CN([C@H](C)CO)C3=O)cc1	2	12	-0.31	1.4
O=C(Cc1cccs1)N1c2ccccc2Sc2ccccc21	3	.	0.12	-1.8
CS(=O)(=O)N(CC(=O)Nc1ccccc1C(=O)N1CCOCC1)c1cccc(F)c1	-11	.	.	1.8
S=C(CC(=S)N1CCOCC1)N1CCOCC1	4	4	-0.1	0.7
COc1ccc(-c2ccc(N)[n+](CCCC(=O)O)n2)cc1	-1	-15	-0.25	.
C[C@H](CO)N1C[C@H](C)[C@H](CN(C)CC2CC2)Oc2c(NC(=O)CCCCCC(=O)Nc3ccccc3N)cccc2C1=O	0	.	0.0028	-0.2
C[C@@H]1CN([C@@H](C)CO)C(=O)c2cccc(NC(=O)CCCCCC(=O)Nc3ccccc3N)c2O[C@@H]1CN(C)S(=O)(=O)c1ccc(Cl)cc1	12	.	0.11	-0.8
C[C@@H]1CN([C@H](C)CO)C(=O)c2cc(NS(=O)(=O)c3cccs3)ccc2O[C@H]1CN(C)C(=O)Nc1ccccc1	-14	-15	0.34	0.4
C[C@@H]1CN([C@H](C)CO)C(=O)c2cccc(NC(=O)C3CCOCC3)c2O[C@H]1CN(C)C(=O)Nc1ccc2c(c1)OCO2	1	15	0.15	0.9
O=C(O)C1CCCN1C(=O)OCc1ccccc1 (stereo unspecified)	1	-19	-0.28	-2.9
CCn1c(SCC(=O)Nc2cc(C(F)(F)F)ccc2Cl)nnc1-c1ccccc1F	-1	.	.	1.0
C[C@H]1CN([C@@H](C)CO)C(=O)Cc2cc(NC(=O)CCC(F)(F)F)ccc2O[C@@H]1CN(C)C(=O)Nc1ccc(C(F)(F)F)cc1	-2	17	-0.076	-0.7
CSc1nc2cc(C)nn2c(-c2ccco2)c1C#N	-5	14	-0.34	-0.5
Cc1noc(C)c1NC(=O)Nc1cccc2c1O[C@@H](CN(C)C)[C@@H](C)CN([C@H](C)CO)C2=O	-4	1	-0.82	3.2
C[C@H](CO)N1C[C@H](C)[C@H](CN(C)C(=O)Nc2ccccc2)Oc2ccc(NC(=O)NC3CCCCC3)cc2C1=O	0	-7	0.017	0.0
C[C@@H]1CN([C@H](C)CO)C(=O)c2cc(NC(=O)Cc3cn(C)c4ccccc34)ccc2O[C@H]1CN(C)Cc1ccccc1	12	.	-0.25	.
COc1ccc(NC(=O)N(C)C[C@@H]2Oc3ccc(NC(=O)CCCN(C)C)cc3C(=O)N([C@H](C)CO)C[C@H]2C)cc1	-7	-29	0.36	-0.4
Cc1noc(C)c1S(=O)(=O)Nc1ccc2c(c1)C(=O)N([C@@H](C)CO)C[C@H](C)[C@H](CN(C)S(=O)(=O)c1ccccc1)O2	-6	5	-0.33	-1.7
C[C@@H]1CN([C@@H](C)CO)C(=O)c2cc(NS(=O)(=O)c3ccccc3)ccc2O[C@@H]1CN(C)S(=O)(=O)c1cn(C)cn1	0	-28	0.7	3.6
CC1=C(C(=O)Nc2ccccc2C)C(c2cccc([N+](=O)[O-])c2)n2ncnc2N1 (stereo unspecified)	-3	.	.	0.6
CNC[C@@H]1Oc2c(NC(=O)Nc3c(C)noc3C)cccc2C(=O)N([C@@H](C)CO)C[C@H]1C	2	-4	-0.37	1.3
Cc1ccc(CN2C(=O)N(c3ccc(F)cc3)C(=O)C2CC(=O)Nc2ccc(Cl)cc2)cc1 (stereo unspecified)	7	.	.	-0.8
Cc1noc(C)c1S(=O)(=O)Nc1ccc2c(c1)C(=O)N([C@H](C)CO)C[C@H](C)[C@@H](CN(C)C(=O)Nc1ccc(F)cc1)OCCCC[C@@H](C)O2	-16	.	-0.26	0.1
C[C@@H]1CN([C@H](C)CO)C(=O)c2cc(NC(=O)c3ccncc3)ccc2O[C@@H]1CN(C)C	3	-42	0.0071	.
COc1ccc(S(=O)(=O)Nc2ccc3c(c2)C(=O)N([C@H](C)CO)C[C@H](C)[C@H](CN(C)C(=O)CCC(F)(F)F)OCCCC[C@@H](C)O3)cc1	10	-67	0.11	1.4
C[C@@H]1O[C@H]2Oc3c(-c4ccc(O)cc4)oc4cc(O)c(c(O)c4c3=O)-c3cc(ccc3O)/C=C\C(=O)OC[C@H]3O[C@@H](O[C@H]([C@H]1O)[C@H]2O)[C@H](O)[C@@H](O)[C@@H]3O	2	14	-0.29	0.4
COc1ccc(NC(=O)N(C)C[C@H]2Oc3ccc(NC(=O)Nc4ccc(C(F)(F)F)cc4)cc3CC(=O)N([C@H](C)CO)C[C@H]2C)cc1	8	14	-0.3	-1.4
Cc1ccc(-c2csc3nc4c5ccccc5c(NCCCN5CCOCC5)nn4c(=O)c23)cc1	-35	.	.	-15
Cc1noc(C)c1NC(=O)Nc1cccc2c1O[C@H](CN(C)C(=O)NC(C)C)[C@@H](C)CN([C@@H](C)CO)C2=O	-5	-13	-0.26	3.3
Cc1cc(C)n2c(Br)c(CSc3nc4ccccc4o3)nc2n1	-8	-44	-0.3	0.6
CCn1c(C)nc2cc(S(=O)(=O)C(F)(F)F)ccc21	2	-47	-0.14	1.2
C[C@H](CO)N1C[C@H](C)[C@H](CN(C)C(=O)Nc2ccccc2)Oc2c(NC(=O)Nc3ccc(C(F)(F)F)cc3)cccc2C1=O	22	28	-0.14	-7.0
NC(=O)CSc1ncn(-c2ccccc2)n1	0	.	.	0.9
C[C@@H]1O[C@@H](O[C@@H]2[C@@H](O)[C@H](O)[C@@H](CO)O[C@H]2c2c(O)cc3oc(-c4ccc(O)cc4)cc(=O)c3c2O)[C@H](O)[C@H](O)[C@H]1O	.	-7	0.31	.
COc1ccc(NC(=O)Nc2ccc3c(c2)CC(=O)N([C@@H](C)CO)C[C@H](C)[C@H](CN(C)C(=O)Nc2ccc(OC)cc2)O3)cc1	-3	-16	-0.23	0.2
C[C@H]1CN([C@@H](C)CO)C(=O)c2cc(NC(=O)Nc3ccc(C(F)(F)F)cc3)ccc2O[C@@H]1CN(C)Cc1ccncc1	-22	35	0.43	-1.9
CCC(C)(CN(C)C)OC(=O)c1ccccc1 (stereo unspecified)	16	-112	0.46	1.8
COc1ccc(NC(=O)c2ccccc2NC(=O)COc2cccc([N+](=O)[O-])c2)cc1	-17	.	.	1.3
C[C@@H]1CN([C@H](C)CO)C(=O)c2cc(NC(=O)C3CCCCC3)ccc2O[C@@H]1CN(C)S(=O)(=O)c1ccc(Cl)cc1	-21	.	0.083	0.4
C[C@H]1CN([C@@H](C)CO)C(=O)Cc2cc(NC(=O)Nc3ccc4c(c3)OCO4)ccc2O[C@H]1CN(C)Cc1ccc(C(=O)Nc2ccccc2N)cc1	-1	.	0.2	-2.4
CC(C)NC(=O)N(C)C[C@H]1Oc2ccc(NS(=O)(=O)c3ccc(Cl)cc3)cc2C(=O)N([C@@H](C)CO)C[C@H]1C	-7	-1	0.18	-0.5
COc1ccc(-c2nnc(SCC(=O)c3ccc(-c4ccccc4)cc3)o2)cc1OC	28	.	.	-1.1
O=C1C(=O)N(Cc2ccco2)C(c2cccc(Cl)c2)C1C(=O)c1ccco1 (stereo unspecified)	-3	.	.	5.1
CN(C)S(=O)(=O)c1ccc2c(c1)/C(=C/c1cc3c([nH]1)CCCC3)C(=O)N2	-61	-17	-0.37	-0.1
C[C@@H]1CN([C@H](C)CO)C(=O)c2cc(NC(=O)Nc3ccccc3)ccc2O[C@@H]1CN(C)C(=O)NC1CCCCC1	-16	13	-0.19	.
C[C@@H]1CN([C@H](C)CO)C(=O)c2cc(NC(=O)Nc3ccc(C(F)(F)F)cc3)ccc2O[C@@H]1CN(C)S(=O)(=O)c1ccccc1	50	27	0.17	-1.1
C[C@@H]1CN([C@@H](C)CO)C(=O)c2cccc(NC(=O)CCCCCC(=O)Nc3ccccc3N)c2O[C@@H]1CN(C)Cc1ccc(Oc2ccccc2)cc1	2	.	-0.16	-7.0
Cc1noc(C)c1NC(=O)Nc1ccc2c(c1)C(=O)N([C@H](C)CO)C[C@H](C)[C@H](CN(C)C(=O)NC1CCCCC1)O2	-4	-36	0.18	1.1
C[C@@H]1CN([C@@H](C)CO)C(=O)c2cccc(N(C)C)c2O[C@@H]1CN(C)CC1CC1	-9	-128	-0.31	2.4
COc1ccc(NC(=O)N(C)C[C@H]2Oc3c(cccc3N(C)C)C(=O)N([C@H](C)CO)C[C@@H]2C)cc1	5	-25	0.29	-0.1
C[C@@H]1CN([C@H](C)CO)C(=O)c2cccc(NC(=O)Nc3ccccc3)c2O[C@H]1CN(C)Cc1ccc(Cl)c(Cl)c1	17	16	-0.089	-5.1
COc1ccc(OC)c(-n2c(=S)[nH]c3cc(C(=O)NCc4ccc(F)cc4)ccc3c2=O)c1	4	77*	-0.18	0.3
Nc1nc(N)c2nc(-c3ccccc3)c(N)nc2n1	-12	-31	-0.072	.
C[C@H]1CN([C@@H](C)CO)C(=O)c2cc(NC(=O)Cn3cnnn3)ccc2O[C@H]1CN(C)Cc1ccc(C(=O)Nc2ccccc2N)cc1	-16	.	-0.091	0.2
COc1ccc(/C=C/C(=O)CC(=O)/C=C/c2cccc(O)c2OC)cc1O	36	69*	-0.52	.
C[C@H](CO)N1C[C@H](C)[C@@H](CN(C)Cc2ccc(Cl)c(Cl)c2)Oc2ccc(NS(=O)(=O)c3ccc(Cl)cc3)cc2C1=O	4	.	0.12	.
Cc1ccc(S(=O)(=O)Nc2ccc3c(c2)CC(=O)N([C@H](C)CO)C[C@@H](C)[C@@H](CN(C)Cc2ccc(-c4ccccc4)cc2)O3)cc1	2	-15	-0.067	0.4
COc1ccc(NC(=O)N(C)C[C@@H]2Oc3ccc(NS(=O)(=O)c4cn(C)cn4)cc3CC(=O)N([C@H](C)CO)C[C@@H]2C)cc1	-7	11	-0.15	-0.1

Quoted at random: four compounds from above.
SMILES	MITF inh	Hedgehog inh	YB-1 expression	PD-1 reversal
NC(=O)CSc1ncn(-c2ccccc2)n1	0	.	.	0.9
C[C@@H]1CN([C@H](C)CO)C(=O)c2cc(NC(=O)Nc3ccccc3)ccc2O[C@@H]1CN(C)C(=O)NC1CCCCC1	-16	13	-0.19	.
C[C@@H]1CN([C@@H](C)CO)C(=O)c2cccc(NC(=O)CCCCCC(=O)Nc3ccccc3N)c2O[C@@H]1CN(C)Cc1ccc(Oc2ccccc2)cc1	2	.	-0.16	-7.0
COc1ccc(OC)c(-n2c(=S)[nH]c3cc(C(=O)NCc4ccc(F)cc4)ccc3c2=O)c1	4	77*	-0.18	0.3

Following part
SMILES	MITF inh	Hedgehog inh	YB-1 expression	PD-1 reversal
Cc1noc(C)c1S(=O)(=O)Nc1cccc2c1O[C@@H](CN(C)Cc1ccc(C(F)(F)F)cc1)[C@@H](C)CN([C@H](C)CO)C2=O	-1	-29	0.13	-2.1
C[C@H](CO)N1C[C@H](C)[C@H](CN(C)C(=O)Nc2ccccc2)Oc2ccc(NC(=O)Nc3ccc4c(c3)OCO4)cc2C1=O	-3	11	-0.069	.
C[C@H](CO)N1C[C@H](C)[C@H](CN(C)C)Oc2ccc(NC(=O)CCN3CCOCC3)cc2C1=O	-3	.	0.021	1.7
NNC(=O)c1csc(CS(=O)(=O)Cc2ccco2)n1	-3	.	0.3	1.7
C[C@@H]1CN([C@@H](C)CO)C(=O)Cc2cc(NC(=O)C3CCCCC3)ccc2O[C@@H]1CN(C)Cc1ccc2c(c1)OCO2	-3	-62	0.12	0.3
CNC[C@@H]1Oc2c(NC(=O)c3nc4ccccc4s3)cccc2C(=O)N([C@@H](C)CO)C[C@@H]1C	-11	-5	0.63	1.6
COc1cc(NC(=O)COc2ccc([N+](=O)[O-])cc2)ccc1NC(=O)c1ccccc1Cl	-19	.	.	1.9
COc1ccc(S(=O)(=O)N(C)C[C@@H]2OCCCC[C@@H](C)Oc3ccc(NC(=O)c4ccncc4)cc3C(=O)N([C@H](C)CO)C[C@@H]2C)cc1	-16	-21	0.066	-0.1
COc1ccc(C(=O)Nc2ccc3nc(SCC(=O)N4CCOCC4)sc3c2)cc1OC	12	.	.	5.6
COc1ccc(S(=O)(=O)Nc2ccc3c(c2)CC(=O)N([C@H](C)CO)C[C@H](C)[C@H](CN(C)Cc2ccc(-c4ccccc4)cc2)O3)cc1	9	.	0.24	.
O=c1[nH]nc(C(F)(F)F)n2cccc12	11	11	-0.51	3.1
CC(C)(O)C1Cc2cc(CCc3cc(O)cc(O)c3)ccc2O1 (stereo unspecified)	18	28	-0.082	0.8
CCOc1ccc(-n2c(SCc3cccc([N+](=O)[O-])c3)nnc2-c2ccncc2)cc1	-22	.	.	-6.2

The list is partial; the hit share may differ from the screen's.
